gsp agonist: activates gsp, the McCune-Albright syndrome mutation | gsp mutant cells, cAMP HTRF, 30 min; control for the full effect not named in the record | Potency, µM (titrated, usually from 76.9 µM), inactives show at the top dose activation (cAMP increase), usual class: activators | 340,000 compounds, 0.13% hits | AID 624287; active = well fitted activation curve with a large enough effect; inconclusive = small, poorly fitted or top-dose-only effect, or another doubt; inactive = no such curve, though single readings can be large or run the other way; cell line not stated here;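 note: phosphodiesterase inhibitor Ro 20-1724 added with compounds to block cAMP breakdown; potency is the fitted concentration of half-maximal effect; nearly all actives have a fitted effect of over 60% in size; about a fifth of the inactives were tested at one dose only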
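Cells in DMEM/10% FBS with G418 were pretreated with compounds in DMSO plus […] (300 uM stock) for 30 min at 37C. cAMP was measured by HTRF (cAMP-d2 plus anti-cAMP antibody-K) after 30 min at room temperature.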
gsp antag: antagonizes gsp, the McCune-Albright syndrome mutation; gsp-mutant cells, cAMP HTRF, 30 min; control for the full effect not named in the record; Potency, µM (top dose mostly 76.9 µM), without a hit: at the highest dose activity change, negative = inhibition, actives largely listed as inhibitors; 340,000 compounds, 0.4% hits; active = falling curve of any shape with a large fitted effect; inconclusive = falling curve, mostly with a smaller effect; inactive = flat or rising curve; cell line not stated here;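 note: intracellular cAMP measured with PDE inhibitor Ro 20-1724 present during compound exposure; potency is the fitted concentration of half-maximal effect; % is set by controls: 0 for no effect and ±100 for the full control effect; nearly all actives have a fitted effect of over 65% in size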
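Measurement of cellular cAMP by homogeneous time-resolved fluorescence following a 30 min compound exposure at 37C. The PDE inhibitor […] was present throughout; the assay buffer was DPBS with 0.05% BSA and 0.005% Tween 20.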
TRPML1 agonist: human mucolipin-1 channel agonism; 410,000 compounds, 0.12% hits; AID 624414; Q9GZU1; activation, % (no concentration beside the values); TRPML1-expressing cells, Ca2+ dye fluorescence, FDSS; host cell line not named in the record; reference of the full effect not given here; in the data active = activation above about 50%; inconclusive = about 30% to 50%; inactive = below about 30%; note: 0% is about no effect; the text of the record puts the active cut at 80%
Target sequence (Q9GZU1 whole entry, looked up): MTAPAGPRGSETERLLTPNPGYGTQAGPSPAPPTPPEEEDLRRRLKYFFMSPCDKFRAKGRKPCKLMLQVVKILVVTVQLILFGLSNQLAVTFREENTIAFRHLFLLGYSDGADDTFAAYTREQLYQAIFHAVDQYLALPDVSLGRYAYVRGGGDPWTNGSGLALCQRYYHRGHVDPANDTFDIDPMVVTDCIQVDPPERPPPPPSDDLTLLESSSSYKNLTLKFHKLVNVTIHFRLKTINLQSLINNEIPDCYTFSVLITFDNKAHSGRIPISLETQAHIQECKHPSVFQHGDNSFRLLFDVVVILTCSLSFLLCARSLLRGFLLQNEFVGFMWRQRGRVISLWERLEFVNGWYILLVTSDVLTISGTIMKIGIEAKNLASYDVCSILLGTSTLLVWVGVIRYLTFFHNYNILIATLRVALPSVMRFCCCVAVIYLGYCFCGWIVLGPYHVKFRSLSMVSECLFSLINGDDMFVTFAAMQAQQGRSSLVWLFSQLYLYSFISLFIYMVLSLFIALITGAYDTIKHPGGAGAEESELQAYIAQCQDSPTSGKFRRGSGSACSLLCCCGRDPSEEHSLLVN
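Calcium fluorescence on an FDSS kinetic reader gave the read-out. Tet-induced TRPML1-DL cells were plated overnight, dye-loaded (Ca8 with quencher, 45-90 min, room temperature, dark), then read 110 s after compound addition, and again 110 s after 4uM final 54-4 (EC80).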
Menin-MLL FL inh: inhibitors of human menin-MLL interaction, wild-type MLL peptide; FP activity change, % at 61.4 µM; AID 1766; 290,000 tested, under 10 active; Fluorescence polarization, fluorescein-MLL peptide displacement from menin; inconclusive = falling polarisation curve, or a change in total fluorescence; inactive = total fluorescence flat and polarisation flat or rising; no compound was filed as active; the % refers to the polarisation; negative = inhibition;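 note: % of control where 0% means no effect; inhibitors lower the polarisation; unlabelled MLL peptide was the positive control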
TRPML1 inh: blocks the human TRPML1 channel. Q9GZU1. 390,000 compounds, 0.02% hits. activity change, negative = inhibition, % (test concentration not listed). TRPML1-inducible cells, Ca2+ dye fluorescence, FDSS; hits give low values; inhibition of EC80 agonist-evoked calcium signal; in the data active means activity change below about -50%; inconclusive means about -30% to -50%; inactive means above about -30%;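 note: stimulus is agonist 54-4 at its EC80 concentration; % is set by controls: 0 for no effect and ±100 for the full control effect; compound concentration not given in the record; the text of the record puts the active cut at -80%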
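TRPML1-DL cells, Tet-induced overnight (~16 h, 37 °C) at 1,500 cells/well, were loaded with Ca8 no-wash dye plus quencher for 45-90 min at room temperature. Compounds were pinned during FDSS kinetic reading; agonist 54-4 at EC80 (4 uM final) then added.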
ClpP mod: qHTS Assay for Activators of ClpP. AID 651965, 2013. purified B. subtilis ClpP, FRET peptide cleavage, 20 min. 340,000 compounds, 1.9% hits. Potency, µM (highest dose often 57.5 µM), for the others: at the top dose activity change, negative = active; active = well fitted falling curve with a large enough effect; inconclusive = small, poorly fitted or top-dose-only effect; inactive = no such curve, though single readings can be large or run the other way; note: potency is the fitted concentration of half-maximal effect; the source files actives as falling curves though it sought activators and does not explain the sign; nearly all actives have a fitted effect of over 65% in size; many hits overshoot -100%
Target sequence (P80244 whole entry, looked up): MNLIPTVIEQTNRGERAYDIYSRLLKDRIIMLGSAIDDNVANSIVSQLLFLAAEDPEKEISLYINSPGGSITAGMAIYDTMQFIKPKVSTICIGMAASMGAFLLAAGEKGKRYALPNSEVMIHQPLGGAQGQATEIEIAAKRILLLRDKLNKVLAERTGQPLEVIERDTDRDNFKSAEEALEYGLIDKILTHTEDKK
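Purified B. subtilis ClpP, 10 microg/mL final in Tris/HCl pH8 with KCl, BSA, glycerol and Tween-20, cleaved an Abz/nitrotyrosine-quenched decapeptide. Fluorescence (ex 320, em 430) was read at 0 and 20 min at room temperature. Delta was normalized to 5.8 microM ADEP and DMSO/no-enzyme controls.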
An asterisk follows results filed as active; & = joins results of further samples; [ ] = dose if it differs, or a comment.

`O=c1c2ccccc2n(Cc2cccc(Cl)c2)c(=O)n1Cc1ccccc1` gave TRPML1 agonist 2.7, TRPML1 inh 79 and ClpP mod inconclusive.
`CCCN(c1ccc(C(C)C)cc1)S(=O)(=O)c1c(C)noc1C` gave gsp agonist -14%, gsp antag -24%, TRPML1 agonist 3.7, Menin-MLL FL inh 0.4, TRPML1 inh 13 and ClpP mod -2.6%.
`CCCC(=O)Nc1c(C(=O)OCC)[nH]c2ccccc12` gave gsp agonist inconclusive, gsp antag 9%, TRPML1 agonist -1.0, Menin-MLL FL inh 1.8, TRPML1 inh 1 and ClpP mod inconclusive.
`COc1ccc(-n2c(SC)nc3sc4c(c3c2=O)CCN(C)C4)cc1` gave gsp agonist -11%, gsp antag -13%, TRPML1 agonist 0.9, Menin-MLL FL inh 7.1 and TRPML1 inh 14.
For O=C(CSc1ncn[nH]1)N/N=C/c1ccc(F)cc1 the results were gsp agonist inconclusive, gsp antag 15%, TRPML1 agonist 0.0, TRPML1 inh -3 and ClpP mod 1.4%.
`CCOc1cccc(CN2CCCC(C(=O)c3cccc(C(F)(F)F)c3)C2)c1O` (configuration not stated) gave gsp agonist -6%[15.4 µM], TRPML1 agonist 1.8, Menin-MLL FL inh 3.1 and TRPML1 inh -11.
For CC1=C(C(=O)N2CCOCC2)C(c2ccc(O)cc2)NC(=S)N1 (configuration not stated) the results were gsp agonist 6%, gsp antag 20%, TRPML1 agonist 0.0, Menin-MLL FL inh 0.1, TRPML1 inh -23 and ClpP mod -0.5%.
For O=P(Cc1ccccc1O)(c1ccccc1)c1ccccc1 the results were gsp agonist -2%[15.4 µM], gsp antag 4%, TRPML1 agonist -0.7, Menin-MLL FL inh 2.4, TRPML1 inh 4 and ClpP mod 1.7%.
`CCCCn1c(N)c(N(CC(C)C)C(=O)c2cccc(S(=O)(=O)N3CCCCCC3)c2)c(=O)[nH]c1=O` gave gsp agonist 6%, gsp antag -6%, TRPML1 agonist 0.7, Menin-MLL FL inh 0.4, TRPML1 inh 18 and ClpP mod -6.0%.
For COc1ccc(C(=O)N/C=C/n2cnc3cc(C(F)(F)F)ccc32)cc1 the results were gsp agonist 6%[15.4 µM], gsp antag 5%, TRPML1 agonist 1.2, Menin-MLL FL inh 2.3 and TRPML1 inh 0.
For O=C(OCC(=O)N1CCC(Cc2ccccc2)CC1)c1ccccc1O the results were gsp agonist -2%, gsp antag inconclusive, TRPML1 agonist 0.9 and TRPML1 inh 50.
For Clc1ccc(-c2nc3cc(CN4CCCCC4)ccc3o2)cc1 the results were gsp agonist -1%, gsp antag 8%, TRPML1 agonist 0.5, Menin-MLL FL inh -5.7, TRPML1 inh 41 and ClpP mod -19%.

Reprinted from the part before: 5 entries, then new ones.
For O=P(Cc1ccccc1O)(c1ccccc1)c1ccccc1 the results were gsp agonist -2%[15.4 µM], gsp antag 4%, TRPML1 agonist -0.7, Menin-MLL FL inh 2.4, TRPML1 inh 4 and ClpP mod 1.7%.
`CCCCn1c(N)c(N(CC(C)C)C(=O)c2cccc(S(=O)(=O)N3CCCCCC3)c2)c(=O)[nH]c1=O` gave gsp agonist 6%, gsp antag -6%, TRPML1 agonist 0.7, Menin-MLL FL inh 0.4, TRPML1 inh 18 and ClpP mod -6.0%.
For COc1ccc(C(=O)N/C=C/n2cnc3cc(C(F)(F)F)ccc32)cc1 the results were gsp agonist 6%[15.4 µM], gsp antag 5%, TRPML1 agonist 1.2, Menin-MLL FL inh 2.3 and TRPML1 inh 0.
For O=C(OCC(=O)N1CCC(Cc2ccccc2)CC1)c1ccccc1O the results were gsp agonist -2%, gsp antag inconclusive, TRPML1 agonist 0.9 and TRPML1 inh 50.
For Clc1ccc(-c2nc3cc(CN4CCCCC4)ccc3o2)cc1 the results were gsp agonist -1%, gsp antag 8%, TRPML1 agonist 0.5, Menin-MLL FL inh -5.7, TRPML1 inh 41 and ClpP mod -19%.
Cc1cnc(C(=O)OCC(=O)Nc2cc(Cl)cc(Cl)c2)cn1 was read as gsp agonist -12%, gsp antag 0%, TRPML1 agonist 0.6, Menin-MLL FL inh -1.9, TRPML1 inh -4 and ClpP mod -1.5%.
Screening [O-]/[N+](=C\c1cccc(Br)c1)c1ccccc1 returned gsp agonist -2%[15.4 µM], gsp antag 10%, TRPML1 agonist -0.1, Menin-MLL FL inh -3.1 and TRPML1 inh 8.
S=C(N/N=C/c1ccccc1Cl)Nc1cccc(Cl)c1Cl was read as gsp agonist 23%, gsp antag 3%, TRPML1 agonist 3.4, Menin-MLL FL inh -0.8, TRPML1 inh 31 and ClpP mod 8.5%.
COn1c(SCc2cccc(Cl)c2)nc2ccccc2c1=O was read as gsp agonist -10%, gsp antag 4%, TRPML1 agonist 2.6, Menin-MLL FL inh 1.2, TRPML1 inh 3 and ClpP mod 1.4%.
For O=C(CN1CCOCC1)OCCCc1ccccc1 the results were gsp agonist -49%[inhibitor], gsp antag 1%, TRPML1 agonist 0.6, Menin-MLL FL inh -3.0, TRPML1 inh 12 and ClpP mod -1.0%.
For COc1cccc(C2CC(c3cccc(C)c3)n3ncnc3N2)c1 (configuration not stated) the results were gsp agonist -33%[inhibitor], gsp antag 4%, TRPML1 agonist 1.3, Menin-MLL FL inh 2.4, TRPML1 inh 34 and ClpP mod 0.5%.
COc1ccc(-c2cc(C(=O)NCc3cc(OC)c(OC)c(OC)c3)[nH]n2)cc1 was read as TRPML1 agonist 1.3, TRPML1 inh 38 and ClpP mod 0.5%.
`Cc1ccc2c(CC(=O)N(C)c3c(N)n(Cc4ccccc4)c(=O)[nH]c3=O)coc2c1` gave gsp agonist -11%, gsp antag -3%, TRPML1 agonist -0.5, TRPML1 inh -14 and ClpP mod 25µM*.
For CCC(C(=O)N1CCN(S(=O)(=O)c2sc(C(=O)O)c(C)c2C(=O)O)CC1)c1ccccc1 (configuration not stated) the results were gsp agonist 11%, gsp antag -16%, TRPML1 agonist -0.7, TRPML1 inh 8 and ClpP mod 1.3%.
For COc1ccc(-c2noc(N3CCC(C(=O)NCc4ccc(Cl)cc4)CC3)n2)cc1 the results were gsp agonist inconclusive, gsp antag -2%, TRPML1 agonist -0.1, Menin-MLL FL inh -1.9, TRPML1 inh 0 and ClpP mod 0.2%.
Screening COc1ccc(CNC(=O)c2cc(=O)c3cc(C)ccc3o2)cc1 returned gsp agonist 23%, gsp antag -16%, TRPML1 agonist -0.1&0.6, Menin-MLL FL inh -0.1, TRPML1 inh 12&23 and ClpP mod -0.8%&0.5%.
For CC(OC(=O)CCCN=C1NS(=O)(=O)c2ccccc21)C(=O)Nc1ccccc1F (configuration not stated) the results were gsp agonist -3%, gsp antag 13%, TRPML1 agonist -0.2, TRPML1 inh 9 and ClpP mod 0.7%.
Screening COc1ccccc1CNC(=O)c1ccc(OC(F)F)c(OC)c1 returned gsp agonist -6%[15.4 µM], gsp antag 12%, TRPML1 agonist -0.2, Menin-MLL FL inh 0.1, TRPML1 inh -3 and ClpP mod 0.0%.
Cc1c(-c2nc(N)nc(Nc3ccccc3F)n2)oc2ccccc12 was read as gsp agonist -14%, gsp antag 17%, TRPML1 agonist 3.3, Menin-MLL FL inh -0.4, TRPML1 inh -12 and ClpP mod inconclusive.
For Cc1cc(C)c(-c2csc(Cc3nc(-c4cc5ccccc5oc4=O)cs3)n2)cc1C the results were gsp agonist -2%, gsp antag -8%, TRPML1 agonist 0.0, Menin-MLL FL inh 6.3, TRPML1 inh -2 and ClpP mod 7.6%.
For CC(=O)Nc1ccc(C(=O)CN2C(=O)NC3(CCCCCC3)C2=O)c(F)c1 the results were gsp agonist -2%[15.4 µM], gsp antag 10%, TRPML1 agonist 0.3, TRPML1 inh 6 and ClpP mod 1.5%.
O=C(NCC(=O)N1CCN(c2ccccc2F)CC1)c1ccco1 was read as gsp agonist 22%, gsp antag 4%, TRPML1 agonist 0.8, Menin-MLL FL inh 4.1 and TRPML1 inh 1.
Screening CCOc1cc(C(=O)N2CCC(CC3CC(c4ccc(Cl)cc4)=NO3)(C(=O)NCC3CCCCC3)CC2)cc(OCC)c1OCC (configuration not stated) returned gsp antag -12%, TRPML1 agonist -0.3, Menin-MLL FL inh 0.6, TRPML1 inh -10 and ClpP mod -0.1%.
`Brc1ccc(CSc2nnc(-c3cnccn3)n2Cc2ccco2)cc1` gave gsp agonist -24%, gsp antag 7%, TRPML1 agonist 0.5, Menin-MLL FL inh 2.0, TRPML1 inh 4 and ClpP mod inconclusive.
Screening O=C(CSc1nc2ncc(Cl)cc2[nH]1)NC1CCS(=O)(=O)C1 (configuration not stated) returned gsp agonist -10%[15.4 µM], gsp antag 13%, TRPML1 agonist -1.0, Menin-MLL FL inh -0.3 and TRPML1 inh 1.
Cc1cc(OC(C)C(=O)NC(Cc2c[nH]c3ccc(O)cc23)C(=O)O)c2c(C)c(C)c(=O)oc2c1 (configuration not stated) was read as gsp antag 6%, Menin-MLL FL inh 5.5 and ClpP mod 4.7%.
For COc1cccc(-c2cc(C(=O)N3CC4(C)CC3CC(C)(C)C4)no2)c1 (configuration not stated) the results were gsp agonist 6%, gsp antag -3%, TRPML1 agonist 1.9, Menin-MLL FL inh -0.7, TRPML1 inh -6 and ClpP mod -8.2%.
Cc1cc2c(cc(C(=O)OCC(=O)NCc3cccs3)n2C(C)C)o1 was read as gsp agonist 9%, gsp antag 6%, TRPML1 agonist 1.0, Menin-MLL FL inh 6.3, TRPML1 inh 7 and ClpP mod -11%.
`CSc1nc(O)c(N=Nc2ccc(F)cc2F)c(=O)[nH]1` gave gsp agonist -5%, gsp antag inconclusive, TRPML1 agonist 0.0, Menin-MLL FL inh 11, TRPML1 inh -1 and ClpP mod 3.6%.
Cc1ccc(-n2ncc3c(Nc4ccccc4C)ncnc32)cc1 was read as TRPML1 agonist 0.2, TRPML1 inh -16 and ClpP mod -4.8%.
Screening Cc1ccc(NC(=O)COC(=O)CC2CC3CCC2C3)cc1S(=O)(=O)N1CCOCC1 (configuration not stated) returned gsp agonist -2%[15.4 µM], gsp antag -4%, TRPML1 agonist 1.1, TRPML1 inh -5 and ClpP mod -0.4%.
Screening COc1cccc(C(O)c2nc3ccccc3n2C(C)C)c1 (configuration not stated) returned gsp agonist 4%, gsp antag -7%, TRPML1 agonist 1.9, Menin-MLL FL inh 1.0, TRPML1 inh -9 and ClpP mod 1.3%.
Cc1ccc(NC(=O)CN2C(=O)NC3(CCCCC3C)C2=O)cc1S(=O)(=O)N1CCOCC1 (configuration not stated) was read as gsp agonist -54%[inhibitor], TRPML1 agonist -0.3, TRPML1 inh -1 and ClpP mod -0.4%.

Not a hit list; any-hit rate near 2.1%.
